KCNQ2 inh = KCNQ2 channel blockers in CHO-K1 cells – cell-based, FluxOR thallium flux, B-score, primary screen (AID 2156) | 20 min; hits give low values; only compounds with negative scores are shown here; some inactives read as strong as hits | 310,000 tested, 1.1% active | O88943 | B-score at 10 µM;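 active means fluorescence ratio B-score at most minus 3 library SDs, with starting brightness B-score within 2 library SDs, cut at about -5.5 in these data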
Target sequence (O88943 whole entry, looked up): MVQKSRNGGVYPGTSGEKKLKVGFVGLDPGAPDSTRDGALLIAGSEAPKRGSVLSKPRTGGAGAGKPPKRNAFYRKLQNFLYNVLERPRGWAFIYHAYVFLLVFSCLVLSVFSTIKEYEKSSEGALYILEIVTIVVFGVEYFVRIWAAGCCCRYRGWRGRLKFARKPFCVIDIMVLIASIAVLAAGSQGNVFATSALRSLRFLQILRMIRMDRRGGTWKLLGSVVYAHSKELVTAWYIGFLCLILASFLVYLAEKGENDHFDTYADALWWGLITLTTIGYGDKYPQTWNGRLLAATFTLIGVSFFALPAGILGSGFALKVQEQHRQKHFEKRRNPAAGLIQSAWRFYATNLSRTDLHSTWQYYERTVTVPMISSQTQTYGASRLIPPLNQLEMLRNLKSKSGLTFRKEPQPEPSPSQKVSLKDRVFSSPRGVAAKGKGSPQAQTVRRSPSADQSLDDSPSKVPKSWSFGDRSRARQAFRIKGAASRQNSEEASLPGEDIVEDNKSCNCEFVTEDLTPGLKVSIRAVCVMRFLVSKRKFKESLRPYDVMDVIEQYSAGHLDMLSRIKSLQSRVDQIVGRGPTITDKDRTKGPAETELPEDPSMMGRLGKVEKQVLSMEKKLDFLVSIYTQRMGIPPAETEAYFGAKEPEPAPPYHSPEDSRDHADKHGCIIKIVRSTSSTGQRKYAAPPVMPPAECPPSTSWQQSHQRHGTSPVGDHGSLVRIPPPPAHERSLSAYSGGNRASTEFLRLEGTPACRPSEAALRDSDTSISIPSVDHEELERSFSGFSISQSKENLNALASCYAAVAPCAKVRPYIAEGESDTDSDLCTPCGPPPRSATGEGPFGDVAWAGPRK
KCNQ2 inh baseline = also measured in KCNQ2 inh; calls as there; B-score; measured here: initial fluorescence intensity artifact check;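 brightness before thallium and not channel activity; 0 = typical well and far values either way flag optical interference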
The depositor's hits bear a star; i = inactive. Only part of the results is shown (hit frequency here may not be typical).

nr	Compound	KCNQ2 inh	KCNQ2 inh baseline
1	COc1ccc(N2C(=O)[C@@H]3Cc4ccccc4CN3C2=O)cc1	i	1.6
2	CCOC(=O)c1cc(-c2ccccc2)nn1Cc1cc(C)no1	i	-0.13
3	CN1C(=O)C2(OCCCO2)c2ccccc21	i	-0.23
4	O=C(OCn1nnc2ccccc2c1=O)C1COc2ccccc2O1 (configuration not stated)	i	-0.19
5	Oc1ccc(-c2nccc(-c3ccc(Cl)cc3Cl)n2)cc1	i	0.29
6	CC(C)(C)c1ccc(/C=N/Nc2nncn2N)cc1	i	1.1
7	O=C(NC(N1CCCCCC1)C(Cl)(Cl)Cl)c1ccccc1Cl (configuration not stated)	i	-0.63
8	Cc1cccc(C(=O)NNS(=O)(=O)c2ccc(F)cc2)c1O	i	-0.83
9	CN(C(=O)COC(=O)CNC(=O)C12CC3CC(CC(C3)C1)C2)c1ccccc1	i	-0.74
10	CCn1c(CNC(=O)COc2ccc(C(C)C)cc2)nnc1SCC(=O)Nc1ccccc1	i	-1.1
11	COc1cccc(/C(N)=N/OC(=O)Cc2ccccc2[N+](=O)[O-])c1	i	-0.2
12	Cc1cc(C)cc(NC(=S)NCCSc2ccc(Cl)cc2)c1	i	-1.3
13	COc1ccc(OC)c(CN2CCC(N3CCC(C(=O)NC4CC4)CC3)CC2)c1	i	0.17
14	O=S(=O)(c1cccc(-c2csc(N/N=C/c3ccco3)n2)c1)N1CCOCC1	i	-0.02
15	COc1cccc(N(CC(=O)NC(C)c2ccccc2)S(C)(=O)=O)c1 (configuration not stated)	i	-0.82
16	Cn1ncc2c(Nc3cccc(C(=O)O)c3)ncnc21	i	-0.41
17	CCCCCCCC(=O)NNC(=O)c1c(O)c2ccccc2n(CCC)c1=O	i	-0.04
18	O=S(=O)(c1ccc2ccccc2c1)N(CC(O)COCc1ccco1)c1ccccc1 (configuration not stated)	-8.9*	1.6*
19	C=CC#CC[N+]1(CC#Cc2ccccc2)CCOCC1	i	0.62
20	COc1ccc(OC)c(NS(=O)(=O)Cc2ccccc2)c1	i	-2.4
21	Cc1cc(C)c2nc3c(c(C(=O)O)c2c1)CCC3	i	-1.3
22	Cc1cccc2cc(CN(Cc3ccco3)C(=O)Nc3cccc(C#N)c3)c(Cl)nc12	i	-0.03
23	CN(C)S(=O)(=O)c1ccc(N2CCCC2)c(C(=O)Nc2ccccc2OC(F)F)c1	i	1.2
24	CCn1cc(CNCc2cn[nH]c2-c2cc3ccccc3o2)cn1	i	0.43
25	COc1ccc(-c2c3c(nc4sc5c(Cl)nc(C)nc5c24)CCC3)cc1	i	-0.68
26	COc1cc(C(=O)NCC(=O)N2CCN(S(=O)(=O)c3cc(C)ccc3C)CC2)cc(OC)c1OC	i	-1.4
27	CCC(C)NCCCOc1ccc(Cl)cc1C(C)(C)C (configuration not stated)	i	0.73
28	Cc1cc(=O)oc2cc(OCC(=O)OCC(=O)Nc3ccc(C(N)=O)cc3)ccc12	i	0.44
29	Cc1c(OCC(=O)NCC2CCC(C(=O)O)CC2)ccc2c3c(c(=O)oc12)CCC3 (configuration not stated)	i	-0.24
30	Cc1ccc2[nH]c3c(c2c1)CN(C(=O)CN(C)CC1OCCO1)CC3	i	0.35
31	CCCCCC(=O)Nc1nc(C)c(-c2csc(Nc3ccccc3OC)n2)s1	i	0.81
32	Oc1c(C(Nc2cccc(C(F)(F)F)c2)c2cccnc2)ccc2cccnc12 (configuration not stated)	i	-0.22
33	O=C(O)c1ccc(COc2ccc(CO)cc2Cl)cc1	i	2.6
34	CC(=O)Nc1ccc(S(=O)(=O)Nc2cccc(N(C)S(C)(=O)=O)c2)cc1	i	-2.1
35	NNc1nc(-c2ccccc2)c2cc(Br)ccc2n1	i	-0.38
36	Clc1ccc(-n2nnc(-c3cccnc3Cl)n2)cc1Cl	i	-1.1
37	O=C(C[n+]1ccc(-c2nnc3n2CCCCC3)cc1)c1ccc(Cl)cc1	i	0.5
38	CCOC(=O)C(=NCCCN(C)C)NNc1ccc(Br)cc1	i	-0.05
39	O=C(NCCc1ccccc1)c1noc2c1CCc1ccccc1-2	i	0.04
40	O=C(N/C=C/c1ccccc1)c1ccccc1	i	-0.49
41	CC(C)C1N=C(c2ccc3c(c2)OCO3)CC(c2ccccc2O)N1 (configuration not stated)	i	-0.79
42	Nc1nc2nccc(-c3ccco3)n2n1	i	1.6
43	CC(C)(C)OC(=O)NCc1ccc(CNC(=O)c2[nH]cnc2C(=O)N[C@@H](Cc2ccccc2)C(=O)OC(C)(C)C)cc1	i	0.56
44	COc1ccc(CCNC(=O)NC23CC4CC(CC(C4)C2)C3)cc1OC	i	-1.8
45	CN1C[C@@H]2C(c3ccc(C(F)(F)F)cc3)C3(c4ccccc4)CC2(C3)[C@H]1c1ccccc1 (some centres not stated)	i	0.01
46	COc1cccc(N(CC(=O)NCCSCc2ccc(Cl)cc2)S(C)(=O)=O)c1	i	2.2
47	CC(=O)Nc1ccc(OCCOc2ccc(NC(C)=O)cc2)cc1	i	1
48	C=C(C)COc1ccc(-c2nc(N)ncc2-c2ccc(Br)cc2)c(O)c1	i	1.7

A draw from above in order of heavy-atom count, rising:
nr	Compound	KCNQ2 inh	KCNQ2 inh baseline
42	Nc1nc2nccc(-c3ccco3)n2n1	i	1.6
41	CC(C)C1N=C(c2ccc3c(c2)OCO3)CC(c2ccccc2O)N1 (configuration not stated)	i	-0.79
43	CC(C)(C)OC(=O)NCc1ccc(CNC(=O)c2[nH]cnc2C(=O)N[C@@H](Cc2ccccc2)C(=O)OC(C)(C)C)cc1	i	0.56

Quoted at random: 2 records from the list.
nr	Compound	KCNQ2 inh	KCNQ2 inh baseline
41	CC(C)C1N=C(c2ccc3c(c2)OCO3)CC(c2ccccc2O)N1 (configuration not stated)	i	-0.79
45	CN1C[C@@H]2C(c3ccc(C(F)(F)F)cc3)C3(c4ccccc4)CC2(C3)[C@H]1c1ccccc1 (some centres not stated)	i	0.01

Going on with the list.
nr	Compound	KCNQ2 inh	KCNQ2 inh baseline
49	Cc1oc2c(C)c3oc(=O)c(CCC(=O)NCCCn4ccnc4)c(C)c3cc2c1C	i	3.6
50	Cc1cccc(C(=O)O/N=C(/c2ccccc2)c2ccncc2)c1	i	-1.1
51	COc1ccc(CCNC(=O)CC(=O)N/N=C/c2ccc(C(=O)O)cc2)cc1OC	i	1.7
52	Cc1ccc(C(=O)Nc2onc(C)c2C#N)cc1	i	-2.5
53	Cc1ccccc1-c1nnc(SCc2ccc(F)cc2)o1	-9.1*	-1*
54	O=C(N/N=C/c1ccccc1C(=O)O)c1cccc(S(=O)(=O)Nc2cc(Cl)ccc2Cl)c1	i	0.64
55	COc1ccccc1N1CCN(C2CCCN(Cc3ccccc3OCCO)C2)CC1 (configuration not stated)	i	-0.42
56	CC(C)NC(=O)NC(=O)CSc1nnc(COc2ccccc2F)n1C(C)C1CC2CCC1C2 (configuration not stated)	i	-0.47
57	O=C(/C=C/c1ccc2ccccc2n1)N1CCN(S(=O)(=O)c2ccc(F)cc2)CC1	i	0.02
58	COc1ccc(-c2cc(C)no2)cc1S(=O)(=O)N1CCCN(Cc2ccccc2Cl)C1	i	-1.4
59	Cc1onc(-c2c(Cl)cccc2Cl)c1C(=O)Nc1ccc(C(N)=O)cc1	i	0.68
60	COc1ccc(S(=O)(=O)N2CCCCCC2)cc1C(=O)N(C)Cc1ccc(C(C)(C)C)cc1	i	-2.9
61	COCCNC(=S)Nc1ccc(S(=O)(=O)Nc2ncccn2)cc1	i	1.3
62	CC1(C)C(=O)C2(CCCCC2)C(=O)OC1c1cccc([N+](=O)[O-])c1 (configuration not stated)	i	-0.74
63	CCC1(c2ccccc2)NC(=O)N(CC(=O)NCc2ccccc2OC)C1=O (configuration not stated)	i	-0.38
64	Cc1ccc(-c2nc(S(=O)(=O)c3ccc(C)cc3)c(SCC(=O)NCC3CCCO3)o2)cc1 (configuration not stated)	i	1.1
65	COc1ccc(NC2CCCN(C(=O)c3cn(C)c4ccccc34)C2)cc1 (configuration not stated)	i	-0.11
66	O=[N+]([O-])c1ccc(Cl)c(NC(=S)N2CCCC2)c1	i	0.93
67	Cc1onc(-c2c(Cl)cccc2Cl)c1C(=O)NN1CCCCCC1	i	-0.11
68	O=C(O)CCC(=O)N1CCN(c2nc(-c3ccccc3)c3ccccc3n2)CC1	i	0.11
69	COc1ccc(CCNC(=O)Cc2ccc(OCc3ccccc3)c(OC)c2[N+](=O)[O-])cc1OCc1ccccc1	-7.7*	-0.59*
70	Cc1nc2c(=O)[nH]c3ccccc3c2o1	i	1.3
71	CC(C)CCNC(=O)C1CCC(CNS(=O)(=O)c2ccc(Cl)cc2)CC1 (configuration not stated)	i	2.5
72	O/N=C/c1cn(-c2ccccc2)nc1-c1cccnc1	i	-1.1
73	CCOC(=O)c1nc2ccccc2c(=O)[nH]1	i	-0.04
74	CCC(C)NC(=O)CC(c1ccc(OC)cc1)n1cccc1 (configuration not stated)	i	-0.77
75	COc1ccc(CN2CCNC(=O)C2CC(=O)NC2CCCCCCC2)cc1C (configuration not stated)	i	1.6
76	CCOc1ccc(C2NC(=O)NC(c3ccccc3)=C2C(C)=O)cc1OC (configuration not stated)	i	0.97
77	CC(C)CN(C(=O)CCC(=O)OCC(=O)c1ccc(F)c(F)c1)c1c(N)n(CC(C)C)c(=O)[nH]c1=O	i	-0.46
78	CC1(c2nnc(-c3ccccc3)o2)CC(c2ccc(Cl)cc2)=NO1 (configuration not stated)	i	0.03
79	CCOC(=O)c1nnn2c1nc(SCC(C)=O)c1ccccc12	i	0.83
80	COc1ccc(OC)c(C(=O)c2ccc(C(=O)Nc3cccc4ccccc34)cc2)c1	i	0.01
81	O=C(NNC(=S)NC(=O)c1ccccc1[N+](=O)[O-])c1ccccc1	i	-0.83
82	Cn1ccnc1Sc1cc(NCCCO)c([N+](=O)[O-])c2nonc12	i	-3
83	Cc1ccc(NC(=O)CSc2nnc(Cc3ccccc3)c(=O)[nH]2)c(C)c1	i	-1.9
84	Cc1nnc(NC(=O)CSc2nnc(CNC(=O)c3ccccc3)n2-c2ccccc2)s1	i	0.11

3 entries from above, with two lines to a compound.
Below each compound – KCNQ2 inh, KCNQ2 inh baseline
(75) COc1ccc(CN2CCNC(=O)C2CC(=O)NC2CCCCCCC2)cc1C (configuration not stated)
 : i, 1.6
(76) CCOc1ccc(C2NC(=O)NC(c3ccccc3)=C2C(C)=O)cc1OC (configuration not stated)
 : i, 0.97
(77) CC(C)CN(C(=O)CCC(=O)OCC(=O)c1ccc(F)c(F)c1)c1c(N)n(CC(C)C)c(=O)[nH]c1=O
 : i, -0.46

The list goes on:
nr	Compound	KCNQ2 inh	KCNQ2 inh baseline
85	O=C(NC(C(=O)N/N=C/c1ccccn1)c1n[nH]c(=O)c2ccccc12)c1ccccc1 (configuration not stated)	i	1.7
86	c1ccc(C2CNCc3c2ccc2ccccc32)cc1 (configuration not stated)	i	1.3
87	CC1=C(C(=O)Nc2cccnc2)C(c2ccc3c(c2)OCO3)C2=C(CCCC2=O)N1 (configuration not stated)	i	0.41
88	O=C(Cc1ccc(Cl)cc1)Nc1ccccc1C(=O)N1CCCC1	i	-0.62
89	CCN(C(=O)COC(=O)c1ccc(OC)c(S(=O)(=O)N2CCCc3ccccc32)c1)C1CCS(=O)(=O)C1 (configuration not stated)	i	-1.7
90	C=CCn1c(=O)c(C(=O)NCc2ccccc2)c(O)c2ccccc21	i	-0.68
91	O=S(=O)(Oc1ccc(C(=S)N2CCOCC2)cc1)c1ccc(Cl)cc1	i	-0.91
92	COc1ccc(CCNC(=O)CSc2nc(O)c(C(C)C)c(=O)[nH]2)cc1OC	i	-0.15
93	CCC(=O)Nc1ccc(S(=O)(=O)Nc2cccc(C)c2)cc1OC	i	-0.01
94	Cc1ccoc1C(=O)N1CCCCC1C(=O)O (configuration not stated)	i	0.92
95	COc1ccc(/C(O)=C2\C(=O)C(=O)N(CCN(C)C)C2c2cc(OC)c(OC)c(OC)c2)c(C)c1 (configuration not stated)	i	5.2
96	COc1cc2c(cc1OC)C(COc1ccc(F)cc1)N(C(=O)c1ccco1)CC2 (configuration not stated)	i	4.3
97	COc1ccc(OC)c(-n2c(=S)[nH]c3c(sc(=S)n3-c3ccccc3)c2=O)c1	i	-1.6
98	O=C(Nc1ccccc1)N1CCN(Cc2ccc3c(c2)OCO3)CC1	i	0.36
99	COc1ccc(NC(=O)Cn2c(=O)sc3ccccc32)cc1	i	-0.63
100	CN=C1SC(CC(=O)Nc2ccccc2F)C(=O)N1C (configuration not stated)	i	2
101	CC(C)CNc1nc(NC(C)(C)C)nc(Oc2ccc(=O)[nH]n2)n1	i	-0.37
102	COc1ccc(-n2nc(C(=O)NCC(=O)N3CCC(C(N)=O)CC3)c3ccccc3c2=O)cc1	i	0.45
103	CCCN(CCO)CCCc1ccccc1	i	-0.01
104	COc1ccc(-c2nn(-c3ccccc3)cc2CO)cc1	i	1.3
105	O=C(CCSc1ccccc1)NNC(=O)c1ccccc1F	i	2.3
106	CC(C)(C)C1COc2ccccc2N1C(=O)c1ccccc1Cl (configuration not stated)	i	-0.51
107	Cc1cccc(-c2nc(C)cc(=O)[nH]2)c1	i	0.49
108	CSc1ccccc1NC(=O)c1cc(-c2ccco2)on1	i	0.46
109	COc1ccccc1-c1cc(C(=O)N/N=C/C=C/c2ccccc2[N+](=O)[O-])c2ccccc2n1	i	0.01
110	COc1cccc(NC(=O)CN2C(=O)CSc3ccc(S(=O)(=O)N4CCCCC4)cc32)c1	i	2.1
111	CC1CN(S(=O)(=O)c2cccc(C(=O)N(Cc3nnc(-c4ccccc4Cl)o3)C3CC3)c2)CC(C)O1 (configuration not stated)	i	2
112	CC(Cc1ccccc1)C(=O)NCc1nc2ccccc2s1 (configuration not stated)	i	0.17
113	COc1ccc(-c2csc(-n3ncc(-c4ccccn4)c3N)n2)cc1	i	0.43
114	CCN1CCN(CCNC(=O)CS(=O)(=O)Cc2nc(-c3ccc(C)cc3)oc2C)CC1	i	1.2

In another format: results already given.
Screens in order – KCNQ2 inh | KCNQ2 inh baseline
(113) COc1ccc(-c2csc(-n3ncc(-c4ccccn4)c3N)n2)cc1
  i | 0.43
(112) CC(Cc1ccccc1)C(=O)NCc1nc2ccccc2s1 (configuration not stated)
  i | 0.17
